Ba CapD inh – Bacillus anthracis CapD inhibitors, primary screen, biochemical, fluorescence intensity. CapD gamma-glutamyltranspeptidase (Bacillus anthracis Ames Ancestor). purified CapD enzyme, fluorescence intensity read-out; stronger effect = lower value; some hits fall short of the stated cut. AID 492967, 2010. hit rate 0.23% among 140,000. z-score (concentration not given with the values);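 active means z-score under -4 in either of two replicates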;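 further: stock transfer was 100 nL into about 40 µL; score is relative to mean and spread of the plate; one replicate is shown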
AID504770 – growth inhibition of E. coli YBA685, primary screen, V. cholerae RctB inhibitors; hit rate 0.27% among 130,000; E. coli YBA685 rctB-dependent plasmid, OD600 growth, 3 h; stronger effect = lower value; z-score (no concentration beside the values); AID 504770, 2011;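 active means z-score under -2 on both plates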;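 further: wells of about 30 µL received 100 nL stock; score is relative to mean and SD of the test wells; the first replicate is given; strong numbers were not always called active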
Numbers without * were called inactive; i = inactive; / = no result given.

Every second line gives: Ba CapD inh, AID504770
- COc1ccc(OCCOC(=O)C23CCC(=O)N2c2ccccc2C(=O)N3C2CC2)cc1 (stereo not given)
 : /, -0.85
- O=C(NCc1cccnc1)c1ccc(-c2cccs2)s1
 : 32.5, -1.1
- O=C(/C=N/O)Nc1ccccc1
 : -0.085, 0.45
- CCOc1cc2c(cc1OCC)-n1cccc1C(c1ccccc1O)NC2 (stereo not given)
 : -0.28, 1.65
- OCCN1CCSC1=Nc1ccccc1C(F)(F)F
 : /, -0.2
- O=S(=O)(CCCCl)c1nc2ccccc2s1
 : -0.86, -0.75
- CCCc1[nH]n(-c2ccc(F)cc2)c(=O)c1C=Nc1ccc(Cl)cc1
 : -0.725, /
- N#C/C(=C\Nc1cccc(C(F)(F)F)c1)c1nc(-c2cc3cc(Br)ccc3oc2=O)cs1
 : 0.055, /
- CCCCCCCCNC(=O)c1ccccc1O[C@@H]1O[C@H](COC(C)=O)[C@@H](OC(C)=O)[C@H](OC(C)=O)[C@H]1NC(C)=O
 : 0.47, /
- Cc1cc(O)c(NC(=O)c2ccc3c(c2)OCCO3)cc1C
 : -0.48, /
- C=CCC1C(=S)SC(C(=O)OCC)=C1NC(=O)c1cccs1 (stereo not given)
 : -0.32, -0.3
- NC1=NC(=O)/C(=C/c2ccccc2OCc2ccc([N+](=O)[O-])cc2)S1
 : -0.97, /
- CCOc1ccc(CCNC(=O)c2cc(=O)[nH]c3ccc(S(=O)(=O)N4CCCC4)cc23)cc1OCC
 : 0.03, -0.5
- CCN(CCS(=O)(=O)c1ccc(Cl)cc1)C(=O)Nc1ccc(Cl)cc1
 : 0.22, -1.05
- Cc1sc(Nc2ccccc2)nc1-c1ccc(Cl)cc1
 : 0.325, -0.15
- CCC1CSC(Nc2ccc(C)cc2)=N1 (stereo not given)
 : /, -1.3
- Cc1ccc(C(=O)NC(CCCCNC(=O)OC(C)(C)C)C(=O)OC(C)(C)C)cc1 (stereo not given)
 : -0.75, /
- CC1CCN(C(=O)COC(=O)c2ccc(NC(=O)CC3SC(N4CCCC4)=NC3=O)cc2)CC1 (stereo not given)
 : /, -0.95
- Cc1onc(-c2ccccc2)c1C(=O)NCCOc1ccccc1
 : 0.19, -0.8
- COc1ccc(CNC(=O)CSc2nc3ccc([N+](=O)[O-])cc3[nH]2)cc1
 : -1.52, /
- N#CC(C#N)=C1CCCN1C(=O)c1ccccc1
 : /, -1.25
- COc1cc(-c2ccccc2O)ncn1
 : -0.25, /
- O=C(NCCN1CCCC1)C1c2ccccc2Oc2ccccc21
 : /, -0.85
- O=c1oc(-c2cccc(C(F)(F)F)c2)nc2cccc(Cl)c12
 : -0.16, 0.3
- CCOc1ccc(OCC)c(NC(=O)CCS(=O)(=O)c2ccc(C)cc2)c1
 : -0.315, -0.45
- Cc1ccc(N2C(=O)/C(=C/c3ccc(Br)cc3)C=C2c2ccccc2)c(Br)c1
 : -0.17, /
- CC(=O)Oc1ccc(C2C(C(=O)OCC3CCCO3)=C(C)NC3=C2C(=O)CC(c2cccs2)C3)cc1 (stereo not given)
 : 26.8, /
- CCOc1ccc(N2C(=O)NC(=O)/C(=C\c3ccc(N4CCCCC4)o3)C2=O)cc1
 : 0.095, /
- OCCN(Cc1ccccc1)Cc1c(Cl)cccc1Cl
 : -0.11, -0.9
- CCC(=O)N(C1CC1)C1CCN(C(C)=O)CC1
 : -0.325, /

Part of the list above in a different format:
canonical_smiles,Ba CapD inh,AID504770
CCOc1ccc(OCC)c(NC(=O)CCS(=O)(=O)c2ccc(C)cc2)c1,-0.315,-0.45
CC(=O)Oc1ccc(C2C(C(=O)OCC3CCCO3)=C(C)NC3=C2C(=O)CC(c2cccs2)C3)cc1 (stereo not given),26.8,/
OCCN(Cc1ccccc1)Cc1c(Cl)cccc1Cl,-0.11,-0.9
Cc1ccc(N2C(=O)/C(=C/c3ccc(Br)cc3)C=C2c2ccccc2)c(Br)c1,-0.17,/
CCC1CSC(Nc2ccc(C)cc2)=N1 (stereo not given),/,-1.3
CC1CCN(C(=O)COC(=O)c2ccc(NC(=O)CC3SC(N4CCCC4)=NC3=O)cc2)CC1 (stereo not given),/,-0.95

(listing goes on)
Every second line gives: Ba CapD inh, AID504770
- COc1cccc(OC)c1Cn1nnc2c(=O)[nH]c(C(=O)Nc3ccccc3Cl)nc21
 : 0.54, 0.25
- CCC(SC1=N/C(=C\c2cccnc2)C(=O)N1c1ccccc1)C(=O)N1CCOCC1 (stereo not given)
 : 7.75, 0.1
- COc1ccc(Cn2cc[nH]c(=O)c2=O)cc1
 : -1.3, -0.7
- CC(NC(=O)c1ccc2c(c1)OCO2)c1ccccc1 (stereo not given)
 : -0.065, -0.25
- c1cc(-c2nc3ccccc3o2)cc(-c2nc3ccccc3o2)c1
 : 1.82, -0.85
- CCCCC1(O)CC(C)N(C)CC1C (stereo not given)
 : /, -0.25
- O=C1Nc2ccccc2C12OCC1(CO2)COC2(OC1)C(=O)Nc1ccccc12 (stereo not given)
 : 0.035, /
- NNc1nc(N)c2c(n1)-c1ccccc1CC21CCCC1
 : -0.315, /
- CC(C)(C)C(=O)OC[n+]1ccccc1
 : /, -0.3
- CC(=O)Nc1ccc(S(=O)(=O)n2nccc2-c2ccc(-c3cccs3)s2)cc1
 : 2.96, 0
- CCCSc1ncccc1C(=O)NCc1ccc2c(c1)OCO2
 : 0.645, -0.15
- Cn1c(C2CCS(=O)(=O)C2)n[nH]c1=S (stereo not given)
 : /, -0.8
- N#Cc1ccc(S(=O)(=O)NC2CCN(Cc3ccccc3)CC2)cc1
 : -1.02, 0.5
- O=[N+]([O-])c1cccc(-c2nc(-c3ccccc3)c(-c3ccc(-c4ccccc4)cc3)[nH]2)c1
 : 5.34, /
- O=C(NC1=NCCS1)c1ccc(S(=O)(=O)N2CCCCCC2)cc1
 : /, 0.45
- O=C(CN(C1CCCCC1)S(=O)(=O)c1ccccc1)N1CCCCC1
 : /, 1.6
- O=C1CCSc2c1cccc2C(=O)Nc1ccccc1F
 : -0.05, -0.05
- O=C(O)CC1(CC(=O)NCc2ccc3c(c2)OCO3)CCCCC1
 : 0.35, -0.7
- OC1C2(c3ccccc3)CN3CN(C2)CC1(c1ccccc1)C3 (stereo not given)
 : -0.46, 1.05
- Cc1oc2ccc(O)cc2c1C(=O)O
 : 0.23, -0.15
- CCOC(=O)C1CCN(S(=O)(=O)c2cc(C(=O)Nc3ccc(Oc4ccccc4)cc3)ccc2F)CC1
 : -0.225, /
- Cc1ccccc1NC(=O)Cc1nc(COC(=O)c2nccnc2N)cs1
 : /, -0.4
- NC(=O)c1ccccc1N=Cc1ccc2ccccc2c1
 : 39, -1.45
- C=CCOC(=O)C1C(C)CC2(C)CC1C(=O)O2 (stereo not given)
 : 0.14, /
- O=C(NCCCn1ccnc1)c1cn(-c2ccccc2)nc1-c1ccccc1
 : 0.095, 1.05
- Cc1c(Cl)cccc1NC(=O)CSC1=C(C#N)C(c2ccco2)C2=C(CCCC2=O)N1 (stereo not given)
 : 3.23, /
- COC(CNC(=O)/C=C1\Sc2ccccc2NC1=O)OC
 : 0.665, -0.35
- COc1ccc2[nH]c3nc4cc5ccccc5cc4nc3c2c1
 : 5.75, /
- CC(=O)N(/N=C1\Sc2ccccc2C1=O)c1ccccc1
 : 3.8, 0.15
- c1ccc(Nc2cn[nH]n2)cc1
 : -0.375, -0.5
- Cc1ccc(C(=O)NC2CCCCCCC2)cc1S(=O)(=O)N1CCOCC1
 : /, -0.2
- COC(=O)CCS(=O)(=O)c1ccc(Cl)c(Cl)c1
 : i, 0.15
- CCOc1ccc(C2c3[nH]c4ccccc4c3CCN2C(=O)c2ccccc2Cl)cc1 (stereo not given)
 : 0.335, /
- COc1cc(CNc2ccccc2)ccc1OCC(N)=O
 : /, -0.05
- CCCn1c(SCc2csc(NC(C)=O)n2)n[nH]c1=O
 : /, -0.7
- Cc1cc(-n2nc3ccccc3n2)c2oc(SCC(=O)NC(C)(C)C)nc2c1
 : 50.8, 0.2
- Cc1ccc(C2C(C#N)=C(SCC(=O)Nc3ccc(Br)cc3)NC3=C2C(=O)CCC3)o1 (stereo not given)
 : 0.22, /
- CN(C(=O)COc1ccc2ccc(=O)oc2c1)C1CCCCC1
 : 59.4, 0.85
- Cc1c(OCC(=O)O)ccc2c(-c3ccccc3)cc(=O)oc12
 : 6.37, 0.45
- CC(C)COCC1CC2(CC(C)(c3csc(Nc4ccccc4Cl)n3)OC2=O)C(=O)O1 (stereo not given)
 : 0.045, /
- Cc1ccc(C2(O)CN(c3ccccc3)C3=[N+]2CCCS3)c(C)c1 (stereo not given)
 : -0.095, /
- CN(C)c1ccc(Nc2cccc3nonc23)cc1
 : -0.56, -1.25
- CC(C)(C)C(=O)OCc1nc(-c2ccc(C(F)(F)F)cc2)cs1
 : 0.165, 1.9
- CCOc1ccc(N=C2S/C(=C\c3ccc(N(C)C)cc3)C(=O)N2CC)cc1
 : -0.57, /
- COc1ccc(C2(CNC(=O)Cc3ccc(OC)c(OC)c3)CCOCC2)cc1
 : -1.05, -0.55
- O=C(CSc1nc(-c2ccccc2)cc(=O)[nH]1)c1ccc(Cl)s1
 : 1.34, 2.85
- CCOc1ccc(-c2[nH]nc3c2C(c2ccc(O)c(OC)c2)C(C#N)=C(N)O3)cc1OC (stereo not given)
 : 0.03, /
- O=C(O)CCC12CC3CC(CC(C3)C1)C2
 : 0.105, /
- CCC(C(=O)NCc1cccnc1)c1ccccc1 (stereo not given)
 : /, -0.25
- CC1=CC(C)C2(COC(=O)Nc3ccccc3)COC(c3cccnc3)C1C2C (stereo not given)
 : -0.155, 1.6
- OC(Cc1nc2ccccc2[nH]1)c1nc2ccccc2[nH]1 (stereo not given)
 : 0.27, 1.6
- CSc1nc2ccc(NC(=O)C3=COCCO3)cc2s1
 : -0.69, -0.8
- CN(C(=S)NCc1ccco1)c1ccccc1
 : /, -0.65
- COc1cc(/C=C2\SC(NC(C)=O)=NC2=O)ccc1OCc1ccccc1C
 : -0.375, /
- O=C(CN1C(=O)S/C(=C/c2ccc(Cl)cc2)C1=O)NC1CCCCC1
 : 1.54, -0.15
- c1nc(N2CCCC2)c2ccsc2n1
 : 0.57, -1
- NC(=O)CSc1nnc(CSc2nc3ccccc3s2)n1Cc1ccccc1
 : /, -0.4
- CCN(CC)CC(O)Cn1c2ccccc2c2ccccc21 (stereo not given) (tested in a mixture with another compound)
 : 8.45, -0.5
- O=C1COc2cc(S(=O)(=O)N3CCCCCC3)ccc2N1
 : -0.975, 0
- CCOC(=O)C1CCN(c2csc3ccccc3c2=O)CC1
 : -3.81, 0.35

Next section
Every second line gives: Ba CapD inh, AID504770
- CC(=O)NC1C(OCc2ccccc2Cl)OC(COC(C)=O)C(OC(C)=O)C1OC(C)=O (stereo not given)
 : 0.66, /
- CCn1c(C)nc2cc(C(=O)OC)ccc21
 : -0.255, -1.9
- C=CCC1(NCc2ccco2)CCN(C)CC1
 : 0.045, -0.4
- N#Cc1cccc(C(=O)NCc2ccccc2)c1
 : /, -0.45
- COC(=O)[C@H](C)NC(=O)c1cccc(C)c1
 : /, 0.9
- Cc1ccc2nc(SCC(=O)N(C)c3ccccc3)nc(=O)n2c1
 : /, 0.05
- Cc1cc(C)n(-c2ccc(CSc3nnc(C4CC4)n3Cc3ccccc3)cc2)n1
 : /, -0.8
- Cc1nc(N2CCN(C)CC2)c2c(C)c(C(=O)Nc3cccc(Cl)c3)sc2n1
 : 0.12, /
- CN(C)c1nc(N)nc(-c2ccco2)n1
 : -0.01, -0.8
- CC(C)(C)OC(=O)N(C/C=C/c1ccccc1)CCOC(=O)N1CCCC1C(=O)OCc1ccccc1 (stereo not given)
 : -1.29, /
- O=C(O)CN(Cc1ccccc1)C(=O)C(F)(F)F
 : -0.13, -0.15
- CC(=O)Nc1cccc(NC(=O)C2CC(=O)N(C3CCCCC3)C2)c1 (stereo not given)
 : -0.765, -0.35
- O=C(NC(=O)N1CCc2ccccc21)c1c(Cl)cccc1Cl
 : 0.755, /
- N#C/C(=C\c1ccccc1)C(=O)N1C(=O)c2ccccc2S1(=O)=O
 : /, 0.7
- Fc1cccc(Cl)c1-n1cccc1
 : 0.215, -0.6
- CC1=NCCN1S(=O)(=O)c1c(C(C)C)cc(C(C)C)cc1C(C)C
 : 0.565, -0.7
- CC1CCCCC1NC(N)=O (stereo not given)
 : /, -0.25
- Cc1ccc2onc(CC(=O)NC3CCCCC3)c2c1
 : 0.58, -0.3
- O=C(Nc1ccc(Cl)cc1)N1OCC2COc3ccc4ccccc4c3C21 (stereo not given)
 : -0.145, /
- O=C(O)c1ccccc1C(=O)NCc1ccc(-c2cccs2)s1
 : 2.76, 0.65
- COc1ccc(-c2cn3ccccc3n2)cc1
 : 54.1, -0.1
- CCCNC(=O)N1CCN(c2ncccn2)CC1
 : -0.34, -0.75
- O/N=C(\CNC(c1ccccc1)(c1ccccc1)c1ccccc1)c1ccccc1
 : -0.055, /
- O=c1c2ccccc2nc2ccc(NC3CCCCC3)nn12
 : 2.6, 1.45
- O=S(=O)(O)CCS
 : 0.24, -0.15
- COCC(C)NC(=O)c1cccs1 (stereo not given)
 : 0.195, -0.8
- Cn1ccnc1Sc1ccc(S(=O)(=O)N2CCCC2)cn1
 : /, -0.15
- O=C(Nc1ccccc1)Nc1nc(=O)c2ccccc2s1
 : -0.295, 0.55
- CC(C)CNC(=S)N(C)N
 : /, -0.35
- Cc1cc(-n2nc(C)cc2C)nc(N)n1
 : 0.255, /
- O=C(/C=C/n1cc(C(F)(F)F)cc(Cl)c1=S)c1ccc(Cl)cc1
 : -0.295, /
- FC(F)(F)c1nc2ccccc2nc1NCc1cccnc1
 : 2.35, -1.2
- Cc1nc2cc(C(=O)N3CCN(C)CC3)ccc2n1-c1ccccc1
 : /, 1.3
- CCn1c(CNC(=O)Cc2ccc(OC)cc2)nnc1SCCOc1ccccc1
 : -0.52, 0

Source: PubChem BioAssay
